RN4220 kill = growth inhibition of S. aureus RN4220, primary screen, OD600. 16 h. inhibition, % (no concentration beside the values). 330,000 tested, 0.33% active;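 active = z-score of -3 or lower and OD600 up to 0.18 on both plates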;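 note: plate controls were untreated cells for no effect and reference antibiotic for full effect; stock transfer was 100 nL into about 80 µL; one replicate is shown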
PrP 5UTR inh = inhibition of PrP 5' UTR reporter expression; cell-based PrP 5' UTR mRNA reporter, plate reader; inhibition, % (test concentration not listed); 340,000 tested, 0.35% active;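 active = every replicate at 50% or more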;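 note: 0 = median of the neutral control wells; tested in H4 reporter cells; numbers are from one replicate; inactives centre near -14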
BJeLR viability = MLPCN primary cell-based screen for lethality selective to Ras in HRASV12 cells | BJeLR (HRASV12) viability, CellTiter-Glo ATP luminescence, 48 h; reference of the scale not given here | 300,000 tested, 0.17% active | inhibition, % (test concentration not listed);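 active = replicate mean above 50%; inconclusive = above 50% but judged a plate artefact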;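 note: 50 nL library stock added to about 25 µL; numbers are from one replicate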
Mtb hypoxia rep = PubChem AID 1159583; M. tuberculosis hypoxia-regulated fluorescent reporter, fluorescence; fluorescence inhibition, % (no concentration beside the values); 300,000 tested, 0.1% active;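 active = 35 to 45% if threefold the growth effect, above 45% if 1.5-fold the growth effect; inactive = the rest, general growth blockers included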;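 note: wells of about 50 µL received 100 nL stock; 0% = vehicle wells and 100% = reference inhibitor wells; whole bacteria with a GFP reporter of the hypoxia response; strong numbers were not always called active; many hits fall short of the cut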
Autofluor counter = counter-screen for toxin protease inhibitors: compound fluorescence. compound autofluorescence counterscreen, microsphere flow cytometry; active compounds read high. fluorescence intensity (no concentration beside the values). 360,000 tested, 3.1% active. AID 624483;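 active = at least 3 SD above the mean of all compounds, about 16000 in these data; inconclusive = too few beads counted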;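 note: 100 nL of 1 mM stock went into each well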
ugtP null kill = growth inhibition of ugtP-null S. aureus, primary screen, RN4220 ugtP deletion, OD600; AID 1259309, 2017; 16 h; some inactives read as strong as hits; growth inhibition, % (no concentration beside the values); 330,000 tested, 0.54% active;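 active = z-score under -3 and OD600 up to 0.15 on both plates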;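 note: plate controls were untreated wells for no effect and antibiotic for full effect; wells of about 80 µL received 100 nL stock; the first replicate is given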
Mtb hypoxia rep growth = second read-out of Mtb hypoxia rep, no call of its own (marks repeat the call); growth inhibition, %; measured here: M. tuberculosis growth (absorbance);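 0% = vehicle and 100% = reference antibiotic; read after six days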
Numbers without * were called inactive. No enrichment for hits, and some 3.9% of all compounds hit somewhere here.

For O=C(Cc1ccc([N+](=O)[O-])cc1)NCc1ccncc1 the results were RN4220 kill 2.7, PrP 5UTR inh -44, BJeLR viability 6, Mtb hypoxia rep 0, Autofluor counter 4871, ugtP null kill 4 and Mtb hypoxia rep growth 0.
Screening CCCC(=O)NC(Oc1ccc(Cl)cc1Cl)C(Cl)(Cl)Cl (centres undefined) returned RN4220 kill 5.0, PrP 5UTR inh -13, BJeLR viability 1, Mtb hypoxia rep 2, Autofluor counter 10874, ugtP null kill 0 and Mtb hypoxia rep growth -4.
Cn1cccc1CC(=O)NNC(=S)NC(=O)c1ccccc1Br was read as RN4220 kill 13, PrP 5UTR inh -26, BJeLR viability -2, Mtb hypoxia rep 10, Autofluor counter 4579, ugtP null kill -5 and Mtb hypoxia rep growth 8.
Screening O=C(Cc1cccc2ccccc12)Nc1ccccc1 returned RN4220 kill 2.4, PrP 5UTR inh -35, BJeLR viability 3, Mtb hypoxia rep 7, Autofluor counter 6115, ugtP null kill 6 and Mtb hypoxia rep growth -2.
O=[N+]([O-])c1ccc(CSCc2ccc([N+](=O)[O-])cc2)cc1 was read as RN4220 kill 1.5, PrP 5UTR inh -10, Mtb hypoxia rep 21, Autofluor counter 3003, ugtP null kill -3 and Mtb hypoxia rep growth 10.
`Cc1cc2c(cc1C)N(Cc1ccccc1)C1=NCCCN12` gave RN4220 kill -3.2, PrP 5UTR inh -10, BJeLR viability -1, Autofluor counter 3513 and ugtP null kill -9.
Screening COc1ccc(Cc2nnc(NS(=O)(=O)c3ccc(NC(C)=O)cc3)s2)cc1 returned RN4220 kill 4.0, PrP 5UTR inh 6, BJeLR viability 6, Mtb hypoxia rep -5, Autofluor counter 5222, ugtP null kill 6 and Mtb hypoxia rep growth 3.
For CCCCc1ccc(NC(=O)CSc2nc(=O)n(CCN(C)C)c3c2CCC3)cc1 the results were RN4220 kill 2.9, PrP 5UTR inh -12, BJeLR viability 0, Mtb hypoxia rep 19, Autofluor counter 6261, ugtP null kill 3 and Mtb hypoxia rep growth 15.
Screening CC(C)n1c(/C=C/[C@@H](O)C[C@@H](O)CC(=O)O)c(-c2ccc(F)cc2)c2ccccc21 returned PrP 5UTR inh -8, BJeLR viability 17 and Autofluor counter 5150.
`CCN(CC(=O)Nc1c(F)cccc1F)C(=O)COc1ccc2c(C)cc(=O)oc2c1` gave RN4220 kill 8.8, PrP 5UTR inh -1, BJeLR viability -13, Mtb hypoxia rep -11, Autofluor counter 3394, ugtP null kill 3 and Mtb hypoxia rep growth -1.
COc1cc(C(CCN2CCCC(C)C2)c2c(OC)cc(OC)c3c(-c4ccccc4)cc(=O)oc23)cc(OC)c1OC (centres undefined) was read as RN4220 kill -3.1, PrP 5UTR inh -8, BJeLR viability 28, Mtb hypoxia rep 3, Autofluor counter 4261, ugtP null kill -3 and Mtb hypoxia rep growth 12.
Screening CCN1C=C(Cc2ccc(F)cc2)C2=C(C1)C(c1ccc(F)cc1)C(C#N)=C(N)O2 (centres undefined) returned RN4220 kill -3.3, PrP 5UTR inh 2, BJeLR viability 0, Autofluor counter 2241 and ugtP null kill -7.
Cn1c(=O)c2ccccc2n(Cc2ccccc2F)c1=O was read as RN4220 kill 1.5, PrP 5UTR inh -17, BJeLR viability -5, Mtb hypoxia rep 11, Autofluor counter 7887, ugtP null kill 5 and Mtb hypoxia rep growth 1.
For Nn1c(SCC(=O)Nc2ccccc2)nnc(Cc2ccccc2)c1=O the results were RN4220 kill 1.1, PrP 5UTR inh -14, BJeLR viability -11, Mtb hypoxia rep -4, Autofluor counter inconclusive, ugtP null kill 3 and Mtb hypoxia rep growth 0.
O=C(COC(=O)C1CCN(/C=C/C(=O)C(F)(F)F)CC1)Nc1cccc(F)c1 was read as PrP 5UTR inh -65, BJeLR viability -10 and Autofluor counter 2688.
For Cc1cc(C)nc(NC(=O)C(c2ccccc2)c2ccccc2)c1 the results were RN4220 kill -3.0, PrP 5UTR inh -11, BJeLR viability -2, Mtb hypoxia rep 2, Autofluor counter 2870, ugtP null kill 7 and Mtb hypoxia rep growth 7.
For COc1ccc([C@H]2CC(=O)C=C(c3cccc(C(C)C)c3)C2)cc1 the results were RN4220 kill 9.7, PrP 5UTR inh -1, Mtb hypoxia rep -11, Autofluor counter 3684, ugtP null kill 19 and Mtb hypoxia rep growth 6.
For NC1=NC[C@H](Cc2ccccc2)N1CC1CCCCC1 the results were PrP 5UTR inh -19, BJeLR viability -6 and Autofluor counter 3068.
CC(=NN1CCN(Cc2ccc(C)cc2)CC1)c1ccco1 was read as RN4220 kill 0.9, Mtb hypoxia rep 14, ugtP null kill 0 and Mtb hypoxia rep growth 4.
For CCOC(=O)C1=C(C)OC(N)=C(C#N)C1c1cc2c(cc1[N+](=O)[O-])OCO2 (centres undefined) the results were RN4220 kill 2.4, PrP 5UTR inh -22, BJeLR viability -5, Mtb hypoxia rep 0, Autofluor counter 2637, ugtP null kill -1 and Mtb hypoxia rep growth 3.

Next part; it opens with the 2 that closed the last part.
CC(=NN1CCN(Cc2ccc(C)cc2)CC1)c1ccco1 was read as RN4220 kill 0.9, Mtb hypoxia rep 14, ugtP null kill 0 and Mtb hypoxia rep growth 4.
For CCOC(=O)C1=C(C)OC(N)=C(C#N)C1c1cc2c(cc1[N+](=O)[O-])OCO2 (centres undefined) the results were RN4220 kill 2.4, PrP 5UTR inh -22, BJeLR viability -5, Mtb hypoxia rep 0, Autofluor counter 2637, ugtP null kill -1 and Mtb hypoxia rep growth 3.
`O=C(NCc1ccccn1)C(=O)Nc1nc(-c2ccccc2)cs1` gave RN4220 kill 4.1, PrP 5UTR inh -33, BJeLR viability -4, Mtb hypoxia rep 9, Autofluor counter 4689, ugtP null kill -2 and Mtb hypoxia rep growth 7.
`O=C(NN=C1CCCCC1)c1ccccc1-n1cccc1` gave RN4220 kill 1.5, PrP 5UTR inh -1, BJeLR viability -24, Mtb hypoxia rep 9, Autofluor counter 5826, ugtP null kill 0 and Mtb hypoxia rep growth 1.
For Cc1cccc(N2CCN(C(=O)c3ccc4c(c3)OCCO4)CC2)c1C the results were RN4220 kill 21, PrP 5UTR inh -14, BJeLR viability -1, Mtb hypoxia rep 3, Autofluor counter 3529, ugtP null kill 1 and Mtb hypoxia rep growth 8.
For CCCCCCOc1ccc(NC(=O)CC2C(=O)N(CC)C(=S)N2Cc2ccco2)cc1 (centres undefined) the results were RN4220 kill 3.7, PrP 5UTR inh 10, BJeLR viability -14, Mtb hypoxia rep 3, Autofluor counter 2660, ugtP null kill 38 and Mtb hypoxia rep growth 3.
For Cc1cnc(NC(=O)Nc2ccc(Cl)cc2)s1 the results were RN4220 kill -7.3, PrP 5UTR inh -46, BJeLR viability -3, Mtb hypoxia rep 3, Autofluor counter 3179, ugtP null kill -12 and Mtb hypoxia rep growth 10.
`COc1cc(/C=N/NC(=O)C(=O)/C=C2\NC(C)(C)Cc3ccccc32)ccc1O` gave PrP 5UTR inh -20, BJeLR viability -4 and Autofluor counter 4784.
`CC1=C(C)C(C)=C(C#N)C(=C(C#N)C#N)N1` gave PrP 5UTR inh -5, BJeLR viability -2 and Autofluor counter 4088.
For CCCCNC(=O)CSc1nc2ccccc2c(=O)n1C1CCCC1 the results were RN4220 kill 1.2, PrP 5UTR inh -11, BJeLR viability -6, Mtb hypoxia rep 4, Autofluor counter 19876*, ugtP null kill 2 and Mtb hypoxia rep growth 5.
Screening COc1ccc(C)cc1N(CC(=O)NCCSCc1ccco1)S(=O)(=O)c1ccc(C)cc1 returned RN4220 kill -0.5, PrP 5UTR inh -19, BJeLR viability 3, Mtb hypoxia rep 0, Autofluor counter 3792, ugtP null kill 9 and Mtb hypoxia rep growth 7.
Screening Cc1onc(C(=O)NCCc2ccccc2)c1[N+](=O)[O-] returned RN4220 kill 5.3, PrP 5UTR inh -33, BJeLR viability 9, Mtb hypoxia rep 10, Autofluor counter 3828, ugtP null kill 4 and Mtb hypoxia rep growth 4.
Screening CN(C)c1ccc(-c2nnc(-c3ccc(S(=O)(=O)C(F)F)cc3)o2)cc1 returned RN4220 kill 16, PrP 5UTR inh -20, BJeLR viability 11, Mtb hypoxia rep 0, Autofluor counter 3479, ugtP null kill 3 and Mtb hypoxia rep growth 11.
For O=C(CCC(=O)Nc1ccc(Cl)cc1Cl)NN=Cc1ccc([N+](=O)[O-])o1 the results were RN4220 kill 96* and ugtP null kill 100*.
For CCC(CO)Nc1ncnc2c1cnn2-c1ccc(Cl)cc1 (centres undefined) the results were RN4220 kill 2.3, PrP 5UTR inh -35, BJeLR viability -13, Mtb hypoxia rep 8, Autofluor counter 6159, ugtP null kill 0 and Mtb hypoxia rep growth -4.
`CCn1cnc2c1c(=O)[nH]c(=O)n2Cc1ccccc1` gave RN4220 kill 0.7, PrP 5UTR inh -20, BJeLR viability -4, Mtb hypoxia rep 7, Autofluor counter 3537, ugtP null kill 8 and Mtb hypoxia rep growth 6.
`CCC(C)n1c(SCC(=O)NCCc2ccc(S(N)(=O)=O)cc2)nc2ccsc2c1=O` (centres undefined) gave RN4220 kill 2.0, PrP 5UTR inh -16, BJeLR viability -1, Mtb hypoxia rep 1, Autofluor counter 2422, ugtP null kill -2 and Mtb hypoxia rep growth 7.
Screening Cc1nn(C(=O)Cn2cc([N+](=O)[O-])cn2)c(C)c1Cl returned RN4220 kill 9.3, PrP 5UTR inh -10, BJeLR viability 6, Mtb hypoxia rep 6, Autofluor counter 5096, ugtP null kill 4 and Mtb hypoxia rep growth 8.
O=C(CCCOc1ccccc1)N1CCN(S(=O)(=O)c2ccccc2)CC1 was read as RN4220 kill 4.1, PrP 5UTR inh -28, Mtb hypoxia rep 16, Autofluor counter 3605, ugtP null kill 2 and Mtb hypoxia rep growth 7.
For Cc1cccc(N(C)C(=O)C2CCCN2S(=O)(=O)c2cccc3nsnc23)c1 (centres undefined) the results were RN4220 kill 3.3, PrP 5UTR inh 0, BJeLR viability 7, Mtb hypoxia rep 0, Autofluor counter 3467, ugtP null kill 7 and Mtb hypoxia rep growth -10.
Screening O=C(CN1C(=O)/C(=C/c2ccc(F)cc2)SC1=S)NC1C=CS(=O)(=O)C1 (centres undefined) returned RN4220 kill 8.8, PrP 5UTR inh -14, BJeLR viability 6, Mtb hypoxia rep 8, Autofluor counter 4681, ugtP null kill 2 and Mtb hypoxia rep growth -10.
Screening OCCNc1ncnc2c1c(-c1ccccc1)c(-c1ccccc1)n2Cc1ccco1 returned RN4220 kill 0.3, PrP 5UTR inh 11, BJeLR viability -2, Autofluor counter 2315 and ugtP null kill 10.
For COc1ccccc1N1CCN(CCCCN2C(=O)C3CCCCN3C2=O)CC1 (centres undefined) the results were RN4220 kill 1.8, PrP 5UTR inh -9, BJeLR viability 0, Mtb hypoxia rep 3, Autofluor counter 3813, ugtP null kill 8 and Mtb hypoxia rep growth 6.
CCOc1ccc(N/C(=N/c2nc(C)cc(C)n2)NC(=O)CC)cc1 was read as PrP 5UTR inh -16, BJeLR viability 3 and Autofluor counter 4574.
`O=S(=O)(c1ccccc1)N1CCN(C(=S)Nc2ccccc2Cl)CC1` gave RN4220 kill -1.5, PrP 5UTR inh -4, BJeLR viability -12, Mtb hypoxia rep 0, Autofluor counter 4995, ugtP null kill 6 and Mtb hypoxia rep growth -1.
CCCCN(C)CCNC(=O)c1nn(-c2ccc(OC)cc2)c(=O)c2c1c1ccccc1n2C was read as RN4220 kill -1.9, PrP 5UTR inh -30, BJeLR viability 5, Mtb hypoxia rep 4, Autofluor counter 2583, ugtP null kill -1 and Mtb hypoxia rep growth -19.

4 structures from above, arranged by molar mass, largest number first:
For Cc1cccc(N(C)C(=O)C2CCCN2S(=O)(=O)c2cccc3nsnc23)c1 (centres undefined) the results were RN4220 kill 3.3, PrP 5UTR inh 0, BJeLR viability 7, Mtb hypoxia rep 0, Autofluor counter 3467, ugtP null kill 7 and Mtb hypoxia rep growth -10.
Screening OCCNc1ncnc2c1c(-c1ccccc1)c(-c1ccccc1)n2Cc1ccco1 returned RN4220 kill 0.3, PrP 5UTR inh 11, BJeLR viability -2, Autofluor counter 2315 and ugtP null kill 10.
For COc1ccccc1N1CCN(CCCCN2C(=O)C3CCCCN3C2=O)CC1 (centres undefined) the results were RN4220 kill 1.8, PrP 5UTR inh -9, BJeLR viability 0, Mtb hypoxia rep 3, Autofluor counter 3813, ugtP null kill 8 and Mtb hypoxia rep growth 6.
`O=S(=O)(c1ccccc1)N1CCN(C(=S)Nc2ccccc2Cl)CC1` gave RN4220 kill -1.5, PrP 5UTR inh -4, BJeLR viability -12, Mtb hypoxia rep 0, Autofluor counter 4995, ugtP null kill 6 and Mtb hypoxia rep growth -1.

Screens deposited in PubChem BioAssay by several laboratories.
